Assay outcomes: PubChem BioAssay, National Center for Advancing Translational Sciences (NCATS)
StopGo FLuc = FMDV 2A StopGo reporter, firefly signal | HEK cells with a luciferase reporter of 2A StopGo recoding | Potency, µM (doses to about 57.5 µM), without a hit: top-dose signal change, negative = less light | 120,000 compounds, 0.23% hits | AID 1745856; active = well fitted falling curve with a large enough effect; inconclusive = small, poorly fitted or top-dose-only effect; inactive = no such curve, though single readings can be large or run the other way; also: nearly all actives have a fitted effect of over 60% in size; overnight with compound
StopGo RLuc = lowers the Renilla signal of an FMDV 2A StopGo reporter | Potency, µM (titrated, usually from 57.5 µM), inactives show at the top dose signal change, negative = less light | 120,000 compounds, 0.32% hits | HEK cells with a luciferase reporter of 2A StopGo recoding; active means well fitted falling curve with a large enough effect; inconclusive means small, poorly fitted or top-dose-only effect; inactive means no such curve, though single readings can be large or run the other way; also: nearly all actives have a fitted effect of over 55% in size; overnight with compound
An asterisk follows results filed as active; u = inconclusive; & = joins results of further samples; [ ] = dose if it differs, or a comment. % is scaled to controls: 0 for no effect and ±100 for the full control effect; potency is read from the fitted curve at half-maximal effect. These rows are one share of the data; rates above refer to the full screens.

SMILES | StopGo FLuc | StopGo RLuc
CCN(CC)CCN(CC(C)C)C(=O)c1sccc1C | -10.7% | 1.3%
CCOc1ccc(/C(=N/O)C(C)NO)cc1 (stereo not given) | 128.6%[activator] | 25.8%
CCC(=O)Nc1ccc2nc(SCCOc3ccc(C)cc3OC)sc2c1 | 20.8% | 23.3%
Cc1ccc(-c2nc(CCNC(=O)c3ccc(C)c(C)c3)cs2)cc1 | -18.4% | 8.2%
Cc1ccc(OCCSc2nc(-c3cccs3)nc3cc(=O)[nH]n23)cc1Cl | -1.3% | 13.1%
Cc1ccccc1C(=O)n1nc(-c2cccnc2)nc1NCc1ccccc1 | 8.3% | -3.8%
O=S(=O)(Cc1ccccc1)C(Cl)(Cl)C(F)(F)C(F)(F)C(F)(F)C(F)F | u | u
Cn1c(=O)c(=O)n(C)c2cc(S(=O)(=O)N3CCCC3C(=O)Nc3ccccc3F)ccc21 (stereo not given) | -12.7% | -13.8%
N#Cc1ccsc1NC(=O)c1ccccc1Cc1ccccc1 | 10.2% | 19.2%
COC(=O)c1ccc(CSc2nc3c([nH]c4ccccc43)c(=O)n2-c2cccc(Cl)c2)o1 | -9.5% | -11.3%
Cc1nn(C)c(C)c1S(=O)(=O)N(CC(=O)Nc1ccc(F)cc1F)c1ccc(C(C)C)cc1 | 10.5% | 10.5%
COc1ccccc1CCNC(=O)C(=O)NCC(c1cccnc1)N1CCN(c2ccccc2)CC1 (stereo not given) | u | u
COc1ccccc1CNC(=O)CN1C(=O)c2cccnc2Oc2ccccc21 | 92.3%[activator] | 7.1%
CCO/N=C(\CC)C1=C(O)CC(c2c(C)cc(C)cc2C)CC1=O (stereo not given) | -18.9%[22.9 µM] | 90.1%[activator][114 µM]
Cc1ccc(NC(=O)CSc2nnc(Cc3ccccc3)o2)cc1Cl | 12.0% | -9.0%
COc1ccccc1C(NC(=O)Cc1ccccc1Cl)c1nccn1C (stereo not given) | -2.2% | -3.0%
Cc1ccc(C)c(NC(=O)c2nc(S(C)(=O)=O)ncc2N(Cc2ccc(C(C)(C)C)cc2)Cc2ccco2)c1 | u | u
Cn1nc(C(=O)OCC(=O)NC(C)(C)C)c2ccccc2c1=O | -2.5% | -11.3%
CC1=C(C(=O)NCc2ccccc2C)C2(CCCCC2)OC1=O | 40.3%[activator] | -5.0%
CCCCC(CC)CNC(=S)Nc1ccc(C(C)CC)cc1 (stereo not given) | -0.5% | 49.9%[activator]

Looked up above.
In StopGo FLuc, `CC1=C(C(=O)NCc2ccccc2C)C2(CCCCC2)OC1=O` has 40.3%[activator]
In StopGo FLuc, `Cn1nc(C(=O)OCC(=O)NC(C)(C)C)c2ccccc2c1=O` has -2.5%
In StopGo RLuc, `Cc1ccc(NC(=O)CSc2nnc(Cc3ccccc3)o2)cc1Cl` has -9.0%
In StopGo FLuc, `CCO/N=C(\CC)C1=C(O)CC(c2c(C)cc(C)cc2C)CC1=O` (stereo not given) has -18.9%[22.9 µM]

(next part)
SMILES | StopGo FLuc | StopGo RLuc
Cc1ccc(C(=O)Cn2cnc3c2c(=O)n(C)c(=O)n3C)cc1C | 0.8% | -6.0%
CC(C)NC(=O)/C(C#N)=C/c1ccc(C(=O)O)cc1 | -14.4% | -10.6%
CCOc1ccc(CNCc2c(C(=O)O)c(C)n(Cc3ccc(F)cc3Cl)c2C)cc1 | -13.3% | -0.5%
Cc1cc(C(=O)N2CC=C(c3ccccc3)CC2)c(C)s1 | 81.8%[activator] | 5.5%
CCOc1ccccc1C1C(C(N)=O)=C(C)Nc2nc(-c3ccccc3Cl)nn21 (stereo not given) | 1.8% | 13.5%
CCOC(=O)c1sc(NC(C)C)nc1C(F)(F)F | 84.9%[activator] | 18.8%
COc1ccc(NC(=O)c2ccc(-n3cccn3)cc2)c(OC)c1 | 25.1% | -2.2%
COc1ccc2ncc3c(-c4ccccc4)nn(-c4ccc(C)c(C)c4)c3c2c1 | -13.0% | -8.8%
CC(=O)N1CCC(C(=O)Nc2ccc(Br)cc2F)CC1 | -1.5% | -11.6%
CCc1ccc2oc(-c3ccc(C)c(NC(=O)c4cc([N+](=O)[O-])ccc4N4CCOCC4)c3)nc2c1 | 10.8% | -6.7%
O=c1c2ccccc2cnn1CN1CCN(S(=O)(=O)c2ccccc2Cl)CC1 | -0.1% | -0.6%
CCOc1ccc(N2CC(NC(=O)c3ccc(S(=O)(=O)N4CCCC4)cc3)CC2=O)cc1 (stereo not given) | -7.9% | 3.7%
O=S(=O)(Nc1ccc(-c2ccc(N3CCCC3)nn2)cc1)c1ccc(OC(F)(F)F)cc1 | 0.0% | -10.2%
Cc1cc(/C=C/C(=O)c2ccccc2F)cc(C)c1O | 26.6% | 38.4%[activator]
c1ccc(CCc2nnc3sc(-c4ccc5ccccc5n4)nn23)cc1 | 63.7%[activator] | -1.6%
O=C(CSc1nnc(C2CC2)n1Cc1ccccc1)c1ccccc1F | 118.0%[activator] | 95.5%[activator]
CNS(=O)(=O)c1ccc(CCC(=O)Nc2nc(C)c(C)s2)cc1 | 87.0%[activator] | 191.4%[activator]
Cc1nn(C)c2c1c(-c1ccccc1)cc(=O)n2Cc1ccccc1F | 11.0% | 14.2%
CC(C)(C)NC(=O)[C@H]1CC[C@H]2[C@@H]3CC[C@H]4NC(=O)C=C[C@]4(C)[C@H]3CC[C@]12C | 17.0% | -8.1%
CCCCCn1nc(C(=O)Nc2cccc(OC)c2)c2ccccc2c1=O | 5.6% | -1.2%

3 entries drawn at random from the list so far:
SMILES | StopGo FLuc | StopGo RLuc
CCCCCn1nc(C(=O)Nc2cccc(OC)c2)c2ccccc2c1=O | 5.6% | -1.2%
Cc1cc(/C=C/C(=O)c2ccccc2F)cc(C)c1O | 26.6% | 38.4%[activator]
O=C(CSc1nnc(C2CC2)n1Cc1ccccc1)c1ccccc1F | 118.0%[activator] | 95.5%[activator]

(cont.)
SMILES | StopGo FLuc | StopGo RLuc
CC(C)(C)NC(=O)C(Sc1ccccc1)c1ccccc1 (stereo not given) | -1.1% | 30.8%
CCCCOc1ccc(OCCN)cc1 | 34.6%[activator] | 1.0%
C/C(=N/O)C1(C)N(O)C(C)(C)C(c2ccc(Cl)cc2)=[N+]1[O-] (stereo not given) | -2.6% | -2.9%
Cc1ccc(NC(=O)CSc2nc3ccc(S(=O)(=O)N4CCOCC4)cc3[nH]2)cc1Cl | -18.7% | 73.5%[activator]
Cc1sc(-c2cscn2)cc1Br | 39.0%[activator] | -0.3%[1.06 µM]
CCOC(=O)c1scc(-c2ccccc2)c1S(=O)(=O)Nc1cc(OC)cc(OC)c1 | -20.2% | 159.6%[activator]
Cc1cc(C)c2sc(N3CCN(C(=O)C4CC4)CC3)nc2c1 | 174.3%[activator] | -29.7%
Cc1ccc(-c2noc(CNC(=O)Nc3ccccc3)n2)cc1 | 53.0%[activator] | 14.6%
COCCCn1c(=N)c(C(=O)NC2CCCC2)cc2c(=O)n3ccccc3nc21 | -19.6% | -5.6%
COc1ccc(Nc2nnc(-c3ccc(C)c(S(=O)(=O)N4CCOCC4)c3)c3ccccc23)cc1 | -5.8% | -6.6%
FC(F)(F)C1(C(F)(F)F)C2C=CC(C2)N1c1ncccn1 (stereo not given) | 4.4% | 3.3%
O=C(O)c1ccc(Nc2nc3ccccc3c3nncn23)cc1 | 1.6% | 0.0%
CCCC1CCC(c2ccc(C(=O)O)cc2)CC1 (stereo not given) | 15.4% | -3.5%
O=[N+]([O-])c1ccc(Cl)c2ncccc12 | 28.7% | -10.4%
CC(=O)c1ccc(NC(=O)c2cn(-c3ccccc3)nc2-c2ccc(Br)cc2)cc1 | -16.9% | -7.5%
O=C(Cn1ncc2ccccc2c1=O)NCC1CCCCC1 | 50.8%[activator] | -8.6%
O=C(NC1(c2ccccc2)CCC1)c1cnc(-c2ccccc2)nc1 | u | u
CCOC(=O)c1cnc2c(Cl)cccc2c1Nc1ccc(OCC)cc1 | -6.6% | -6.6%
O=C(NCCN1CCCCC1)C1CCCC1 | 29.8% | -3.0%
O=C(Nc1ccccc1N1CCCCCC1)C1CCN(S(=O)(=O)c2cc(F)ccc2F)CC1 | -3.6% | 6.7%
CN(Cc1ccccc1)c1nc2c(c(=O)n(C)c(=O)n2C)n1CCSc1nc2ccccc2o1 | 3.9% | -0.1%
COc1ccc(Cc2nc3ccc(C(=O)NCCc4ccc(Cl)cc4)cc3o2)cc1 | -10.9% | -1.1%
Cc1cc(C)n(-c2nc3c(c(=O)n(CCN4CCOCC4)c(=O)n3C)n2C(C)C)n1 | -1.2% | -3.5%
CCCCCCn1c(N2CCN(Cc3c(Cl)cccc3Cl)CC2)nc2c1c(=O)[nH]c(=O)n2C | -3.8% | -8.4%
C#CCNC(=O)/C=C/c1ccc(C)s1 | 188.1%[activator] | 10.2%
CCOc1ccc(OCC)c(C(=O)NCc2coc(-c3cccs3)n2)c1 | 11.8% | 41.2%
O=C(Cc1csc(-c2ccccc2Cl)n1)Nc1nc(C2CC2)cs1 | -26.8% | u
OCc1cc2ccc(Br)cc2[nH]1 | -20.5% | -26.8%
Cc1ccc(C(CNC(=O)c2cc(=O)c3cc(Cl)ccc3o2)N2CCN(C)CC2)o1 (stereo not given) | 27.6% | 11.3%
COC(=O)CCOc1ccc(S(=O)(=O)Nc2ccc(C)cc2F)cc1 | 3.1% | 10.4%

Gathered by group: the compounds so far with a COOH group.
SMILES | StopGo FLuc | StopGo RLuc
CC(C)NC(=O)/C(C#N)=C/c1ccc(C(=O)O)cc1 | -14.4% | -10.6%
CCOc1ccc(CNCc2c(C(=O)O)c(C)n(Cc3ccc(F)cc3Cl)c2C)cc1 | -13.3% | -0.5%
O=C(O)c1ccc(Nc2nc3ccccc3c3nncn23)cc1 | 1.6% | 0.0%
CCCC1CCC(c2ccc(C(=O)O)cc2)CC1 (stereo not given) | 15.4% | -3.5%

Other records
SMILES | StopGo FLuc | StopGo RLuc
CSc1ccc(/C=C(/C#N)C(=O)Nc2c(C)cc(C)cc2C)cc1 | 1.9% | -6.1%
Cc1ccc(C)c(NC(=O)CN2CCCN(Cc3cccc(Cl)c3)S2(=O)=O)c1 | -18.8% | 1.7%
COc1ccc(N2CC(NC(=O)C(c3ccccc3)c3ccccc3)CC2=O)cc1 (stereo not given) | 2.4% | -11.6%
Cc1cc2oc(C(=O)Nc3ccc(S(=O)(=O)N(C)Cc4ccccc4)cc3)cc(=O)c2cc1C | -5.7%&-22.6% | -6.7%&1.6%
O=C(CC(F)(F)F)N(Cc1ccncc1)C1CC1 | -3.0% | -4.7%
COc1cccc(OC[C@@H](O)CN2CCC(C(O)(c3ccccc3)c3ccccc3)CC2)c1 | -17.1% | -9.3%
CCN1C(=O)c2cccc3c(S(=O)(=O)Nc4ccc(O)c(C(=O)O)c4)ccc1c23 | -10.9% | -23.0%
Cc1cccc(CS(=O)(=O)N2CCC(C(=O)Nc3ccc(CSc4ccccc4)cc3)CC2)c1 | -0.7% | -4.9%
CCSc1ncc(Cl)c(C(=O)N2CCN(c3ccc(OC)cc3)CC2)n1 | -12.5% | -6.1%
CC(=O)Nc1ccc(S(=O)(=O)Nc2c(NC3CCCCC3)c3ccccc3oc2=O)cc1 | 25.8% | 40.9%[activator]

Grouped by structure, those above with a nitro group on carbon
SMILES | StopGo FLuc | StopGo RLuc
CCc1ccc2oc(-c3ccc(C)c(NC(=O)c4cc([N+](=O)[O-])ccc4N4CCOCC4)c3)nc2c1 | 10.8% | -6.7%
O=[N+]([O-])c1ccc(Cl)c2ncccc12 | 28.7% | -10.4%

New compounds follow
SMILES | StopGo FLuc | StopGo RLuc
Cc1ccc(CNC(=O)C2CCCCC2)s1 | 0.0% | 8.9%
CC(=O)Nc1ccc(SC(C)C(=O)c2ccc3c(c2)NC(=O)CO3)cc1 (stereo not given) | 16.5% | 20.8%
C(=N\N(Cc1ccccc1)c1ccccc1)/c1cccs1 | 12.4% | 4.4%
CC1COCCN1C(=O)C1CCN(c2nc3ccccc3o2)CC1 (stereo not given) | 49.2%[activator] | -1.7%
CNC(=O)C1CCN(Cc2cc3ccccc3n2Cc2cccc(C)c2)CC1 | -21.8% | -14.6%
CC(=O)c1ccc(S(=O)(=O)Nc2ccc(-c3ccc(N4CCCCC4)nn3)cc2)cc1 | 158.7%[activator] | 95.7%[activator]
CCNC(=O)C(C)NC(=O)CCc1ncc(-c2ccc(C)cc2)o1 (stereo not given) | 27.5% | -4.3%
O=C(NCCCN1CCN(c2ccccc2F)CC1)c1cc2c(Cl)nc3ccccc3c2s1 | -8.2% | 0.7%
Cc1ccc(C(=O)Nc2ccc(C(=O)OCc3cc(=O)n4nc(C5CC5)sc4n3)cc2)cc1 | 5.7% | -2.6%
C=CCOc1ccc(/C=C/C(=O)Nc2ccc(C(N)=O)cc2)cc1 | u | 5.7%[1.06 µM]
Fc1ccc(NC(=S)NC2CC2)cc1 | 21.6% | 13.0%
Cc1ccc(C)c(N2CCN(C(=O)Cn3cnc4nc5c(cc4c3=O)CCCC5)CC2)c1 | 7.5% | -0.3%
